# Mtb hypoxia inh = PubChem AID 1159583; M. tuberculosis hypoxia-regulated fluorescent reporter, fluorescence; fluorescence inhibition, % (concentration not given with the values); hit rate 0.1% among 300,000;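 active = 35 to 45% if threefold the growth effect, above 45% if 1.5-fold the growth effect; inactive = the rest, general growth blockers included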;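 also: wells of about 50 µL received 100 nL stock; 0% = vehicle wells and 100% = reference inhibitor wells; whole bacteria with a GFP reporter of the hypoxia response; strong numbers were not always called active; many hits fall short of the cut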
# ugtP null kill = growth inhibition of ugtP-null S. aureus, primary screen, RN4220 ugtP deletion, OD600. 16 h; some inactives read as strong as hits. growth inhibition, % (test concentration not listed). hit rate 0.54% among 330,000;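 active = z-score under -3 and OD600 up to 0.15 on both plates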;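 also: plate controls were untreated wells for no effect and antibiotic for full effect; wells of about 80 µL received 100 nL stock; the first replicate is given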
# Sa RN4220 lethal = growth inhibition of S. aureus RN4220, primary screen, OD600. hit rate 0.33% among 330,000. 16 h. inhibition, % (no concentration beside the values);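 active = z-score of -3 or lower and OD600 up to 0.18 on both plates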;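 also: plate controls were untreated cells for no effect and reference antibiotic for full effect; stock transfer was 100 nL into about 80 µL; one replicate is shown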
# Bead autofluor = counter-screen for toxin protease inhibitors: compound fluorescence; AID 624483; hit rate 3.1% among 360,000; compound autofluorescence counterscreen, microsphere flow cytometry; stronger effect = higher value; fluorescence intensity (concentration not given with the values);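 active = at least 3 SD above the mean of all compounds, about 16000 in these data; inconclusive = too few beads counted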;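 also: 100 nL of 1 mM stock went into each well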
# PrP 5UTR inh = inhibition of PrP 5' UTR reporter expression. inhibition, % (no concentration beside the values). cell-based PrP 5' UTR mRNA reporter, plate reader. hit rate 0.35% among 340,000. AID 488862, 2010;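 active = every replicate at 50% or more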;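 also: 0 = median of the neutral control wells; tested in H4 reporter cells; numbers are from one replicate; inactives centre near -14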
# BJeLR lethal = MLPCN primary cell-based screen for lethality selective to Ras in HRASV12 cells; BJeLR (HRASV12) viability, CellTiter-Glo ATP luminescence, 48 h; reference of the scale not given here; inhibition, % (concentration not given with the values); hit rate 0.17% among 300,000; AID 1554, 2009;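 active = replicate mean above 50%; inconclusive = above 50% but judged a plate artefact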;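 also: 50 nL library stock added to about 25 µL; numbers are from one replicate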
# Mtb hypoxia inh growth = also measured in Mtb hypoxia inh; calls as there; growth inhibition, %; measured here: M. tuberculosis growth (absorbance);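 0% = vehicle and 100% = reference antibiotic; read after six days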
# An asterisk follows results filed as active; ? = inconclusive; · = not tested or not shown.
item	molecule	Mtb hypoxia inh	Mtb hypoxia inh growth	ugtP null kill	Sa RN4220 lethal	Bead autofluor	PrP 5UTR inh	BJeLR lethal
1	COc1ccc(/C=C/c2nc(-c3ccccc3O)n[nH]2)cc1	7	1	6	-8.9	2463	-159	4
2	COc1cccc(-c2cccc(NC(=O)C3CCN(Cc4cnn(C)c4)CC3)c2)c1	0	-1	1	1.3	?	6	-5
3	COc1ccc(CN2C(=O)C(C)=C(C)C2OC)cc1 (centres undefined)	-2	6	-4	2.2	3662	-6	-5
4	CNC(=S)NN=Cc1ccc(-c2cccc(C(=O)O)c2)o1	-7	10	8	7.8	·	·	·
5	O=C(Nc1nncs1)c1ccccc1Br	·	·	14	-5.1	2890	-3	·
6	CC(Cl)C(=O)NC(=O)NC12CC3CC(CC(C3)C1)C2 (centres undefined)	13	5	-10	0.8	1996	-12	2
7	O=C(NC1CCCC1)c1ccc2c(c1)S(=O)(=O)c1ccccc1C2=O	4	9	5	10	4131	-14	0
8	CCOC(=O)c1c(C)nc2cc(C)ccn12	·	·	8	3.4	6342	·	1
9	Cc1ccc2nc3sc(C(=O)N4CCOCC4)c(N)c3cc2c1	6	2	2	-0.5	8059	86*	1
10	CCC1CN(C)CCC1(OC(C)=O)c1ccccc1 (centres undefined)	-10	-4	-2	-4.5	4093	-39	-5
11	O=C(CCC(=O)c1ccccc1)Nc1ccccc1OC(F)F	6	9	8	5.1	3641	-11	1
12	Cc1c(CCO)c(=O)n(-c2ccccc2)n1S(=O)(=O)c1ccc([N+](=O)[O-])cc1	4	2	-4	6.6	4146	-22	1
13	COc1cc(C(=O)OCC(=O)Nc2ccc(C)cc2)cc(OC)c1OC	1	8	9	3.2	3777	-11	2
14	CC(=O)N1c2ccc(S(=O)(=O)N3CCC(C(=O)NCc4ccc(F)cc4)CC3)cc2CC1C (centres undefined)	8	7	6	2.5	4951	-20	-1
15	Cc1ccc(NC2CCCN(C(=O)CCCN3CCCCC3=O)C2)cc1C (centres undefined)	5	4	-1	4.1	6370	-20	4
16	CC1CN(C(C)CO)C(=O)c2cc(NC(=O)c3ccncc3)ccc2OC1CN(C)C(=O)NC1CCCCC1 (centres undefined)	10	10	9	4.3	·	·	·
17	CCc1nn(-c2cc(Oc3ccccc3)nc(-c3ccccc3)n2)c(N)c1C#N	-4	-6	-4	1.3	3379	-12	2
18	COc1ccccc1N1CCN(c2nc3ccccc3nc2C(C#N)C(=O)OC(C)C)CC1 (centres undefined)	·	·	7	-1.0	5107	-12	4
19	CCCNC(=O)c1onc(CSc2ccc(F)c(F)c2)c1C(=O)NCCC	7	8	6	5.1	·	·	-14
20	COc1cccc(NC(=O)CN(C)C(=O)CCN2C(=O)C3CC=CCC3C2=O)c1 (centres undefined)	5	0	14	5.3	·	-5	·

# Continued.
item	molecule	Mtb hypoxia inh	Mtb hypoxia inh growth	ugtP null kill	Sa RN4220 lethal	Bead autofluor	PrP 5UTR inh	BJeLR lethal
21	Cc1nc(Cc2ccccc2)sc1CC#N	20	8	5	5.3	4201	-20	·
22	O=C(CN(Cc1ccccc1C(F)(F)F)C(=O)CNC(=O)c1ccco1)NC1CCCC1	·	·	4	1.4	4190	-10	-2
23	Cc1nn(Cc2ccccc2)c(C)c1NC(=O)CSc1nc(-c2ccccc2)nc2c1cnn2-c1ccccc1	11	15	0	-1.6	3073	-5	1
24	CCN1C(=O)[C@H]2[C@H]3CN=C(SCc4ccc(C#N)cc4)N3[C@@](CC)(C(=O)OC)[C@H]2C1=O	-1	2	2	2.6	4141	24	·
25	COc1ccc(COC(=O)C2=C(C)NC(=O)NC2c2ccccc2OC(C)C)cc1 (centres undefined)	3	2	4	1.1	3779	-40	7
26	Cc1ccc(C)c(N(C)C(=O)COc2cc(=O)n(C)c3ccccc23)c1	·	·	3	3.7	5615	-37	0
27	CCc1[nH]nc2c1C(Cc1ccccc1)C(C#N)=C(N)O2 (centres undefined)	9	4	14	3.0	8977	-32	-6
28	Cc1cccc(NC(=O)c2nc[nH]c2C(=O)N2CCN(C(=O)OC(C)(C)C)CC2)c1	-5	5	-2	3.6	4302	9	·
29	Cc1nn(CC(=O)N2CCOCC2)c(C)c1[N+](=O)[O-]	8	0	2	3.4	2438	-6	5
30	CC(=O)c1ccc(Sc2ccc(C(C)=O)cc2)cc1	-3	2	7	15	1947	-18	-4
31	Cc1cc(OCC(=O)OCC(=O)NCCN2C(=O)CSC2=O)ccc1Cl	2	6	-2	1.9	5225	-19	·
32	O=c1c2sccc2nc(SCc2cc(=O)n3cc(Cl)ccc3n2)n1Cc1ccccn1	-3	-3	4	19	3105	32	-30
33	O=C(NCC(=O)N(c1ccccc1)C(C(=O)NCC1CCCO1)c1ccccc1)c1cccs1 (centres undefined)	10	11	5	5.9	5807	-23	-1
34	CC(=O)NC(C)C12CC3CC(CC(C(=O)O)(C3)C1)C2 (centres undefined)	-1	0	3	2.3	9751	-15	-3
35	CC(=O)c1nnn(-c2ccc(F)cc2F)c1C	11	16	4	2.5	3295	0	-6
36	Cc1csc(=O)n1CCC(=O)OCC(=O)NNC(=O)c1ccc(Br)cc1	9	4	8	4.0	3032	-12	·
37	Cc1c(NC(=O)CSc2nnc(-c3ccco3)n2-c2ccccc2)c(=O)n(-c2ccccc2)n1C	21	-9	-1	-14	3018	-7	-1
38	CCc1ccc(Cn2nnc(C(=O)Nc3ccc(OC)cc3OC)c2N)cc1	·	·	3	2.2	4685	-15	-3
39	COc1cc(C(=O)OCCc2c(C)nc3nc[nH]n3c2=O)cc(OC)c1OC	1	-11	12	3.5	4384	-5	3
40	COC(=O)c1cccc(-c2noc(-c3ccccc3F)n2)c1	3	4	7	11	4022	-3	·

# A second format for part of the listing above.
[23] Cc1nn(Cc2ccccc2)c(C)c1NC(=O)CSc1nc(-c2ccccc2)nc2c1cnn2-c1ccccc1
[24] CCN1C(=O)[C@H]2[C@H]3CN=C(SCc4ccc(C#N)cc4)N3[C@@](CC)(C(=O)OC)[C@H]2C1=O
[25] COc1ccc(COC(=O)C2=C(C)NC(=O)NC2c2ccccc2OC(C)C)cc1 (centres undefined)
[26] Cc1ccc(C)c(N(C)C(=O)COc2cc(=O)n(C)c3ccccc23)c1
Assay by compound | 23 | 24 | 25 | 26
Mtb hypoxia inh | 11 | -1 | 3 | ·
Mtb hypoxia inh growth | 15 | 2 | 2 | ·
ugtP null kill | 0 | 2 | 4 | 3
Sa RN4220 lethal | -1.6 | 2.6 | 1.1 | 3.7
Bead autofluor | 3073 | 4141 | 3779 | 5615
PrP 5UTR inh | -5 | 24 | -40 | -37
BJeLR lethal | 1 | · | 7 | 0

# Remaining list, next part
item	molecule	Mtb hypoxia inh	Mtb hypoxia inh growth	ugtP null kill	Sa RN4220 lethal	Bead autofluor	PrP 5UTR inh	BJeLR lethal
41	CCN1CCCC1CN(Cc1cc2ccc(C)cc2[nH]c1=O)C(=S)Nc1ccc(OC)cc1OC (centres undefined)	6	4	5	2.8	3332	-11	1
42	C/C(=N\OCC(=O)OCC(=O)NC(=O)c1ccccc1)c1ccc2c(c1)OCO2	·	·	·	·	6515	-13	-10
43	Clc1ccc(Cn2cc(/C=N/n3cnnc3)c3ccccc32)c(Cl)c1	·	·	·	·	2230	10	1
44	NC(=NOC(=O)c1ccc(Cl)cc1)c1ncc([N+](=O)[O-])s1	5	8	10	5.1	·	·	·
45	O=C1COc2ccc(C(=O)COC(=O)c3ccc(F)cc3Cl)cc2N1	15	8	-7	-3.3	3565	-15	·
46	O=c1c([N+](=O)[O-])cn(Cc2ccccc2)c(=O)n1Cc1ccccc1	17	13	5	1.7	3418	32	·
47	CCOc1cc(C(=O)NN=Cc2ccoc2)cc(OCC)c1OCC	0	1	4	3.5	·	·	·
48	CC12CN3CC(C)(CN(C1)P3(=O)Oc1ccccc1)C2=O (centres undefined)	0	-4	1	-0.2	3822	-5	-2
49	Cc1cc2nc(CCN(Cc3cccnc3)C(=S)Nc3ccc(F)cc3)[nH]c2cc1C	-2	-3	-5	4.2	8203	-23	2
50	Cc1nnc(SCC2=C(C(=O)O)N3C(=O)C(NC(=O)Cn4nc(C(F)F)c(Cl)c4C)C3SC2)s1 (centres undefined)	·	·	100*	100*	4134	-15	12
51	CC[n+]1c(C=C2C=C(C)OC(C)=C2)sc2ccccc21	3	4	7	3.6	5625	-26	34
52	Cc1ccc(S(=O)(=O)Nc2ccc(S(=O)(=O)N3CCOCC3)cc2)cc1[N+](=O)[O-]	11	3	3	7.1	6251	-15	-11
53	CCOC(=O)c1sc(C)nc1C1CCN(C(=O)OCC)CC1	·	·	4	1.1	3520	-3	-19
54	O=C(OCc1nnc(-c2ccccc2)o1)c1ccc2c(c1)C(=O)N(CCc1ccccc1)C2=O	·	·	6	1.6	4415	-20	-21
55	CC(C)(C)OC(=O)N1CCC[C@H]1c1nnc(SCC(=O)Nc2cccc(Cl)c2)o1	5	4	15	8.4	4124	-19	-11
56	Cc1csc(SCC(=O)Nc2nccs2)n1	5	1	11	6.5	3980	-26	-9
57	CC(NC(=O)c1ccccc1Br)c1nnc(SCC(=O)NC2=NCCS2)n1C (centres undefined)	0	-3	5	0.3	3063	-25	1
58	CCOC(=O)C1=C(C)NC(=S)NC1c1ccc(C)s1 (centres undefined)	16	17	7	5.4	4149	-16	-1
59	NC(=O)C1CCN(C(=O)/C=C/c2ccccc2[N+](=O)[O-])CC1	5	2	-8	1.7	3724	-26	0
60	O=C(CN1C(=O)NC2(CCCCCC2)C1=O)Nc1cccc(F)c1	-4	-5	-1	2.0	4283	-7	·

# Going on with the list.
item	molecule	Mtb hypoxia inh	Mtb hypoxia inh growth	ugtP null kill	Sa RN4220 lethal	Bead autofluor	PrP 5UTR inh	BJeLR lethal
61	O=S(=O)(c1ccc(F)cc1)N1CC2CCCN2c2ccc(C(F)(F)F)cc21 (centres undefined)	1	10	-12	1.6	10559	-1	-7
62	Cc1ccc(C(=O)NNC(=O)Cn2nnc3ccccc32)cc1	-2	5	-5	0.9	5057	-2	3
63	C=CCn1c(SC)nc2sc3c(c2c1=O)CCc1ccccc1-3	8	6	-5	-2.0	2256	-23	-4
64	CCCS(=O)(=O)N1CCC(C(=O)NCCCOC)CC1	8	8	2	1.8	·	-3	17
65	O=C(CN1C(=O)NC2(CCCCCCC2)C1=O)N1CCN(C(=O)c2ccco2)CC1	·	·	-12	-1.9	2618	-17	-9
66	O=C(NN=Cc1ccncc1)c1ccc(Cl)s1	-7	2	2	2.6	·	·	·
67	O=C(CSCc1ccccc1)N1CCN(c2ccccc2)CC1	6	9	8	2.0	2070	-37	12
68	Cc1cc(Cl)ccc1C(=O)C1CCCN(C2CCSCC2)C1 (centres undefined)	-10	-2	-1	4.5	5669	7	-3

# Entries of single compounds as entered above.
# Entry for `Cc1cc(Cl)ccc1C(=O)C1CCCN(C2CCSCC2)C1` (centres undefined) = Mtb hypoxia inh: -10; Mtb hypoxia inh growth: -2; ugtP null kill: -1; Sa RN4220 lethal: 4.5; Bead autofluor: 5669; PrP 5UTR inh: 7; BJeLR lethal: -3
# Entry for `O=C(NN=Cc1ccncc1)c1ccc(Cl)s1` = Mtb hypoxia inh: -7; Mtb hypoxia inh growth: 2; ugtP null kill: 2; Sa RN4220 lethal: 2.6; Bead autofluor: ·; PrP 5UTR inh: ·; BJeLR lethal: ·

# Screens as filed in PubChem BioAssay.
